NPYLR7 agonist: agonists of mosquito NPYLR7 receptor, primary screen, cell-based, Aedes aegypti, calcium fluorescence, mosquito biting behavior; Aedes aegypti neuropeptide Y-like receptor 7 (NPYLR7); HEK293T NPYLR7/Galpha15, GCaMP6s calcium fluorescence; activation, % at 10 µM; hit rate 0.15% among 270,000; AID 1259423, 2018; in the data active = activation above about 40%;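 note: 0% = vehicle and 100% = reference agonist at the receptor; some compounds past the cut are filed as inactive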
NPYLR7 agonist max-min: recorded beside NPYLR7 agonist, whose call it bears; activation, %; measured here: Max-Min RFU normalised activation; some inactives read as strong as hits;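 span of the calcium signal over five minutes; 0% = vehicle and 100% = native peptide agonist; compound fluorescence can raise it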
The depositor's hits bear a star; & = joins results of further samples. Not all compounds are listed. The share of hits here may be higher or lower than overall.

SMILES	NPYLR7 agonist	NPYLR7 agonist max-min
O=C(Nc1cccc(N2CCNC2=O)c1)c1ccccc1Cl	2	2
CCOC(=O)C1=C(C)N(C)C(=S)NC1c1cccc(N)c1 (stereo not drawn)	3	12
CC(C)Oc1ccc(CN2CCC2(C)C(=O)Nc2cccc(Oc3ccccc3)c2)cc1 (stereo not drawn)	6	1
COc1ccc(-n2nc([N+](=O)[O-])c(=Nc3cccc(C)c3C)n2O)cc1	-11	-13
Cc1c(Cl)cnn1CC(=O)NCC(F)(F)F	0	2
COc1ccc(S(=O)(=O)NC(C)c2ccccc2OC)cc1Br (stereo not drawn)	-2	2
O=C(CCCn1ncn2c(cc3occc32)c1=O)N1CCCCCC1	1	-1
CN(CC(=O)Nc1sc2c(c1C#N)CCCCC2)Cc1ccco1	4	6
Cc1nc(C)c(C(C)NC(=O)COc2ccc3c(c2)CCC3)s1 (stereo not drawn)	0	-2
O=S(=O)(c1ccc(F)cc1)N1CCN(c2ncnc3sc4c(c23)CCCC4)CC1	4	2
CC(=O)c1ccc(N2Cc3ccccc3C3(CCOCC3)C2=N)cc1	-12	-16
Cc1cccc(-n2ccnc2CN2CCc3c([nH]c4ccccc34)C2c2ccccn2)c1 (stereo not drawn)	15	6
COC(=O)c1ccc(NC(=O)C2CCN(c3ccc(-c4ccco4)nn3)CC2)cc1	-5	-6
Cc1ccc2c(c1)c(N=Nc1ccc([N+](=O)[O-])cc1)c(O)n2C	-4	-10
CCN(CC)c1ccc(CN(CCOC)C(=O)c2ccccc2Cl)c(OS(C)(=O)=O)c1	15	25
CCCCCCCC(=O)Nc1c(-c2ccc(OC)c(OC)c2)nc2ccc(C)cn12	-4	-2
Cc1ccc(-c2csc(-c3ccc(O)cc3)n2)s1	-5	-5
COc1ccc(CC2CCN(C(=O)COc3cccc(Cl)c3)CC2)cc1	2	7
O=C(c1cc2n(n1)CCN(Cc1cccc(C(F)(F)F)c1)C2=O)N1CCC2(CC1)OCCO2	25	37
CN(CC1CCNCC1)C(=O)OC(C)(C)C	2	-2
COc1cccc(C2c3[nH]c4ccccc4c3CCN2Cc2cnc(SC)nc2)c1 (stereo not drawn)	1	-2
CC(C)[C@H](NS(=O)(=O)c1cccc(C(F)(F)F)c1)C(=O)OCCN1C(=O)c2ccccc2C1=O	-6	-11
O=C(c1ccccc1F)N1CCCC(OCC2CC2)C1 (stereo not drawn)	-6	-5
Clc1ccccc1CNc1nc(-c2ccccc2)no1	13	7
C=CCn1c(SCC(N)=O)nc2c([nH]c3ccccc32)c1=O	11	9

Shown with two lines to a compound: entries from further up.
Below each compound: NPYLR7 agonist | NPYLR7 agonist max-min
CCCCCCCC(=O)Nc1c(-c2ccc(OC)c(OC)c2)nc2ccc(C)cn12
  -4 | -2
Cc1ccc(-c2csc(-c3ccc(O)cc3)n2)s1
  -5 | -5

New compounds follow:
SMILES	NPYLR7 agonist	NPYLR7 agonist max-min
O=C(Cc1cc(-c2cc3ccccc3o2)on1)NCCCN1CCOCC1	3	6
Cc1ccc(C)c(Nc2nnc(C)c(=O)[nH]2)c1	11	5
COc1ccc(-c2cc(C(=O)N3CCN(c4cccc(Cl)c4)CC3)n3nc(-c4ccc(Cl)cc4)cc3n2)cc1	5	3
O=C(Cn1cnc2c(nnn2Cc2ccccc2)c1=O)N1CCc2ccccc21	6	5
C=C(C)COc1ccc(C(=O)NCC2CCN(C)C2)cc1 (stereo not drawn)	3	2
CC1=NN(c2ccccc2)C(=O)/C1=C/c1cc(-c2ccccc2)n(-c2ccc([N+](=O)[O-])cc2)c1-c1ccccc1	2	-2
COCCN(Cc1cccc(OS(=O)(=O)c2cccc(C(F)(F)F)c2)c1)S(=O)(=O)c1ccc(C(C)(C)C)cc1	-10	-14
O=C(Nc1ccc(F)cc1)c1cc(S(=O)(=O)N2CCOCC2)ccc1F	6	10
CC1NC(=S)N(c2cccc(Oc3ccncc3)c2)C1=O (stereo not drawn)	-1	-4
CC(=O)Nc1cc(Br)cnc1OCC(F)(F)F	-29	-26
COc1ccc(S(=O)(=O)n2nc(C)c(S(=O)(=O)N3CCC(C)CC3)c2C)cc1OC	2	-1
C=CCN(CC(=O)N(CCc1ccc(OC)c(OC)c1)Cc1sccc1C)C(=O)Nc1ccccc1OCC	-11	-4
COCC1CCCCN1C(=O)CC1(c2ccccc2)CC(=O)N(Cc2ccc3c(c2)OCO3)C1=O (stereo not drawn)	17	12
C/C(=C\c1ccccc1)CN1CCC(n2nccc2NC(=O)C2CCCC2)CC1	-2	-3
Cc1ccccc1C1=NOC(CN(Cc2ccc(C(F)(F)F)cc2)C(=O)c2cccc(F)c2)C1 (stereo not drawn)	8	18
CCN1CCN(c2ccccc2NC(=O)/C(=C\C(=O)O)c2ccccc2)CC1	0	-1
O=C1C(C(c2ccc(F)cc2)N2CCc3ccccc3C2)Sc2ncnn21 (stereo not drawn)	12	11
CCCC(C)c1nc(N2CCN(C(=O)Nc3ccc(Cl)cc3)CC2)c2cnn(-c3ccccc3)c2n1 (stereo not drawn)	12	12
O=C(Cc1ccccc1)Nc1nnc(SCC(=O)Nc2nc3ccccc3s2)s1	-10	-18
Cc1cc(C(=O)N2CC(C)OC(C)C2)nc2cc(C(C)(C)C)nn12 (stereo not drawn)	2	5
COCCCn1ccnc1-c1cc(OC)ccc1-n1cccn1	15	10
CCOC(=O)c1ccc(NC(=O)CSc2nc3[nH]ncc3c(=O)[nH]2)cc1	-2	-4
Cc1cc(N2CCCCC2)nc(Nc2ccc(NC(=O)c3ccc4ccccc4c3)cc2)n1	9	2
CCOc1ccc(NC(=O)N2CCC3(CC2)C(=O)N(CC(=O)NCCCOC)CN3c2ccccc2)cc1	8	18
CN(CC(=O)N(C)C)Cc1cccc(C(=O)Nc2ccc3nccnc3c2)c1	6	3

(listing goes on)
SMILES	NPYLR7 agonist	NPYLR7 agonist max-min
Fc1ccc(-c2nnc(CON=Cc3cccc(Cl)c3Cl)o2)cc1	5	6
Cc1cc(N(C)C2CCc3ccccc32)nc(C)n1 (stereo not drawn)	0	-6
COc1ccsc1S(=O)(=O)N1CCC(n2ccnc2)CC1	-3	-3
O=C(CNS(=O)(=O)c1cccs1)N1CCC2(CCCO2)CC1	6	4
CC(C)NC(=O)Nc1cccc(C(=O)Nc2ccc(C(C)C)cc2)c1	4	3
CCCOC(=O)c1c(NC(=O)Cn2nc([N+](=O)[O-])cc2C)sc2c1CCCC2	-10	-13
CC(=O)c1ccc(-c2[nH]cnc2-c2ccccc2)cc1	-1	-3
Cc1c(C)c(C)c(S(=O)(=O)N2CCC(c3nc(-c4ccccc4F)no3)CC2)c(C)c1C	15	6
Cc1ccccc1Cn1c(C)c(C(=O)NCc2ccc(C(C)C)cc2)sc1=O	1	-2
COc1cc(OC)cc(C2SCCN2C(=O)Nc2ccc(F)cc2F)c1 (stereo not drawn)	2	6
COc1cccc(C(=O)N2CCN(c3ccccc3OC)CC2)c1	0	-5
CCC(C)N(C(=O)CSc1nncn1C)C1CCS(=O)(=O)C1 (stereo not drawn)	-1	-4
CCOc1ccc(-n2cccc2C=O)cc1	-1	-2
CCOc1ccc(CC(=O)N2CCN(c3ncnc4c3nnn4Cc3ccccc3)CC2)cc1	-9	-13
O=C(NCc1ccc(NC(=O)C2CC2)cc1)c1cncn1-c1ccccc1	18	9
Cc1nc(SCC(=O)c2cc(C)n(CC3CCCO3)c2C)c2c(C)c(C)sc2n1 (stereo not drawn)	0	8
OCC1CCCCN1Cc1ccc2c(c1)CN(Cc1cccc3cccnc13)CCO2 (stereo not drawn)	-13	-13
COCCCN(CC(=O)N(Cc1cccn1Cc1ccccc1Cl)CC(C)C)C(=O)c1ccc([N+](=O)[O-])cc1	26	27
CCOC(=O)C(CCCCn1cnc2c(Cl)ncnc21)(NC=O)C(=O)OCC	3	4
Cc1noc(C)c1CC(=O)N1CCC(CCC(=O)NCc2cccnc2)CC1	17	10
CCOC(=O)C1CCCN(C(=O)c2cc(-c3ccccc3)n(-c3ccc(OC)cc3OC)c2C)C1 (stereo not drawn)	9	16
O=C(c1cnc(C2CC2)s1)N1CCN(C2CCCC2O)CC1 (stereo not drawn)	10	11
O=[N+]([O-])c1cc(Cl)cc(C=NCc2ccc3c(c2)OCO3)c1O	13	21
O=C(NC1CCN(c2ccccc2C(=O)N2CCOCC2)CC1)C1CCC1	23	13
Cc1onc(-c2ccccc2Cl)c1C(=O)Nc1ccc2nc(-c3ccccc3)[nH]c2c1	1	-1

Laid out differently: three of the compounds above.
| canonical_smiles | NPYLR7 agonist | NPYLR7 agonist max-min |
| --- | --- | --- |
| COCCCN(CC(=O)N(Cc1cccn1Cc1ccccc1Cl)CC(C)C)C(=O)c1ccc([N+](=O)[O-])cc1 | 26 | 27 |
| Cc1cc(C(=O)N2CC(C)OC(C)C2)nc2cc(C(C)(C)C)nn12 (stereo not drawn) | 2 | 5 |
| CN(CC(=O)Nc1sc2c(c1C#N)CCCCC2)Cc1ccco1 | 4 | 6 |

Full records as entered above. Values in the order: NPYLR7 agonist | NPYLR7 agonist max-min
`O=C(CNS(=O)(=O)c1cccs1)N1CCC2(CCCO2)CC1` as listed: 6 | 4
`COc1cc(OC)cc(C2SCCN2C(=O)Nc2ccc(F)cc2F)c1` (stereo not drawn) as listed: 2 | 6
`O=[N+]([O-])c1cc(Cl)cc(C=NCc2ccc3c(c2)OCO3)c1O` as listed: 13 | 21
`Cc1ccccc1Cn1c(C)c(C(=O)NCc2ccc(C(C)C)cc2)sc1=O` as listed: 1 | -2

(next part)
SMILES	NPYLR7 agonist	NPYLR7 agonist max-min
Cc1ccc(C(=O)NC(Cc2ccccc2)C(=O)Nc2nnc(-c3cccc(C)c3)s2)cc1 (stereo not drawn)	19	19
Cc1cccc(OC(C)C(=O)N2CCN(S(=O)(=O)c3ccc(Cl)s3)CC2)c1 (stereo not drawn)	3	1
CC1C(=O)N(c2cccc(Br)c2)CCN1C(=O)c1ccc(Cl)cc1 (stereo not drawn)	-3	3
COc1ccc(CCN2CCC(CN(C)C(=O)C3=CCCCC3)CC2)cc1	14	4
C=CCN1Cc2cc3c(cc2N(CC(C)O)CCC1=O)OCO3 (stereo not drawn)	23	32
NC(=O)C1CCN(Cc2cc(=O)oc3ccc(O)cc23)CC1	7	3
CN(C)S(=O)(=O)c1ccc2nnn(OCc3ccccc3)c2c1	3	2
Cc1nc2nc3ccn(CCN4CCOCC4)c(=O)c3c(-c3ccc(Cl)cc3)n2n1	-9	-14
Cc1ccn2c(=O)nc(SCc3ccc(C(F)(F)F)cc3)nc2c1	2	1
COCCOC(=O)C1=C(C)NC2=C(C(=O)CCC2)C1c1ccc(Br)cc1 (stereo not drawn)	-5	-7
O=C1C(Cl)=C(N=CC(O)C(O)C(O)C(O)CO)C(=O)c2ccccc21 (stereo not drawn)	14	12
CCOC(=O)NNC(=O)c1cn[nH]c1-c1ccc(Cl)cc1	1	3
COc1cc(-n2cnc(C(=O)O)c2)ccc1NC(C)=O	3	-7
COc1ccc(S(=O)(=O)N2CCC(Cc3ccc(C(F)(F)F)cc3)CC2)cc1OC	25	14
Cc1nn2c(-c3cccc(C(F)(F)F)c3)cc(C(=O)O)nc2c1-c1ccccc1	-3	5
OCCNC(=S)NC12CC3CC(CC(C3)C1)C2	4	4
Clc1ccc(-c2nc(NCCN3CCOCC3)c3ccc(Cl)cc3n2)cc1	-2	1
COCCOCC(=O)N1CCC(c2cn(Cc3ccc(C(F)(F)F)cc3)c3ccccc23)CC1	22	13
CN(Cc1ccccc1)C(=O)C1(C)CCN1C(=O)Cc1cccs1 (stereo not drawn)	-2	0
O=C(O)CN1C(=O)/C(=C\c2cn(Cc3ccc([N+](=O)[O-])cc3)c3ccccc23)SC1=S	-13	-21
Cc1ccc(N2C(=O)C(c3c(C(C)C)[nH]n(-c4ccc(Cl)cc4)c3=O)=C(N3CCC(C)CC3)C2=O)cc1	16&9	26&14
COc1ccccc1N1CCN(C(=O)c2cc3n(n2)CCN(CC2CC2)C3=O)CC1	20	7
COc1ccccc1-c1cc2nc(C)cc(N3CCCC3)n2n1	1	-5
CCC(=O)C1OC(O)(CCC2=CCOC2=O)C2(C)CCCC(C)(C)C12 (stereo not drawn)	-5	-12
COC(=O)Nc1nc2ccc(C(=O)c3cccs3)cc2[nH]1	-2&0&2&0	-3&-8&0&-11

Reprinted from the listing for reference:
SMILES	NPYLR7 agonist	NPYLR7 agonist max-min
Cc1ccn2c(=O)nc(SCc3ccc(C(F)(F)F)cc3)nc2c1	2	1
COCCOC(=O)C1=C(C)NC2=C(C(=O)CCC2)C1c1ccc(Br)cc1 (stereo not drawn)	-5	-7

Continuation.
SMILES	NPYLR7 agonist	NPYLR7 agonist max-min
COc1ccc(CCn2c(-c3cccc(OCc4ccccc4)c3)nc3ccc(Br)cc3c2=O)cc1	0	-3
CCOc1ccc(C(=O)N(C)CCc2ccccc2F)cc1	-11	-10
Cc1c(C(=O)N2CCN(S(=O)(=O)c3ccccc3F)CC2)sc2ccccc12	0	0
CCOc1cc2oc(=O)cc(C)c2cc1OCC	-6	-8
CCC(O)CN(Cc1ccc(F)cc1)Cc1cc(C)ccc1C (stereo not drawn)	18	30
Cc1ccccc1C1c2ccsc2CCN1CC(=O)N1CCN(C(=O)c2cc(C(F)(F)F)cc(C(F)(F)F)c2)CC1 (stereo not drawn)	10	-2
CC1=NC2=C(C(=O)CCC2)C(c2ccccc2C(F)(F)F)C1C#N (stereo not drawn)	-7	-14
COc1c(NC(=O)c2ccc(OCC(F)(F)F)nc2)c(C)nn1C	12	9
COC(=O)c1ccc(NC(=O)COC(=O)c2ccc(F)cc2N)cc1	-2	-4
CCCC12CN(C(=O)CC3CCC(C)CC3)CC1C(=O)NC(=O)N2 (stereo not drawn)	-8	-15
COc1ccc(CC(=O)N2Cc3ccccc3C(n3cccn3)C2)cc1 (stereo not drawn)	5	2
COc1cccc(-c2cccc(NC(=O)C3CCN(Cc4nccs4)CC3)c2)c1	2	-1
CC1=CC(=NN=C(c2ccccc2)c2ccccc2)CC1	0	-2

Bioassay records (PubChem BioAssay)
